Source: PubChem BioAssay
FGF22 binding = binders of human FGF22 protein, primary screen, FGF22 synaptogenesis inhibitor project, biophysical, thermal shift, single point; 1.5% of 340,000 active; Fibroblast growth factor 22 (Homo sapiens), Q9HCT0; calls only at 9.99 µM; recombinant FGF22 thermal shift, SYPRO orange fluorescence; percent of sucrose octasulfate shift, DMSO zero; AID 651658, 2012;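 active = melting point raised past a set limit in the mean and every replicate; three in four hits are not shown here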
Beta2AR agonist = beta2AR agonists driving receptor internalization, primary screen, cell-based, FAP fluorogen, flow cytometry | Am2.2-beta2AR cells; reference of the scale not given here | 0.43% of 340,000 active | response, % (concentration not given with the values) | Beta-2 adrenergic receptor (Homo sapiens), P07550;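 active = response above a set limit, near 3 SD of response in nonfluorescent compounds, cut at about 42% in these data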;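 note: stock transfer was 100 nL into about 11 µL; a reference agonist was the positive control; negative values mostly stem from fluorescent compounds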
Target sequence (P07550 whole entry, looked up): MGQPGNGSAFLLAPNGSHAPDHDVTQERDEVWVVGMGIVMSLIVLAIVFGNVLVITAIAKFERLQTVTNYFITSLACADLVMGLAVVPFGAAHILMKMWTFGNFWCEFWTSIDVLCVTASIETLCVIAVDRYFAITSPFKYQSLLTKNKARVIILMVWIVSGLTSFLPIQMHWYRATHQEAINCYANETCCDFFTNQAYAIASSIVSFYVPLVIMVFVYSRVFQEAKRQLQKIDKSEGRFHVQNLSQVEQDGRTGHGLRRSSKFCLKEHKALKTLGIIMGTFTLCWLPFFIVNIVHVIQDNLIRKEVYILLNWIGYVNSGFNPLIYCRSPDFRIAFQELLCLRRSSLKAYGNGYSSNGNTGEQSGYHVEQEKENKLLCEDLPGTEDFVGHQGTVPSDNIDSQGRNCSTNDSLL
UCH37 DUB inh = inhibitors of human UCH37 deubiquitinase, primary screen, biochemical, Ub-AMC cleavage, fluorescence; AID 588478, 2011; purified proteasome/UCH37; inhibition, % (concentration not given with the values); Ubiquitin carboxyl-terminal hydrolase isozyme L5 (Homo sapiens), Q9Y5K5; 0.33% of 330,000 active;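 active = mean of two replicates above 20%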;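 note: 0% = compound-free wells with enzyme and 100% = wells lacking proteasome; stock transfer was 100 nL into about 20 µL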
Target sequence (Q9Y5K5 whole entry, looked up): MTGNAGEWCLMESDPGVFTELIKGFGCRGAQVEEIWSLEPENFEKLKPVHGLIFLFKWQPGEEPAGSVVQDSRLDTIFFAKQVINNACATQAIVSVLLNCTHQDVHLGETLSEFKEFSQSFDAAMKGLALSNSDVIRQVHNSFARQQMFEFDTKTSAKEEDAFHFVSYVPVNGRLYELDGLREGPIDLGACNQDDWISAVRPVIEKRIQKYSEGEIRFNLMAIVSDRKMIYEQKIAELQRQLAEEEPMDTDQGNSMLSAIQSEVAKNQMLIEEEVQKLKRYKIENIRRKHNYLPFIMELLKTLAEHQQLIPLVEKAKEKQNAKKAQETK
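Material: human UCH37 enzyme supplied as purified proteasome complex / Amount: 0.15 nM proteasome as dispensed / Buffer or medium: pH 7.4 Tris-HCl (50 mM) with ovalbumin, ATP-MgCl2, DTT / Times: preincubation 30 min, reaction 25 min, room temperature / Technique: AMC fluorescence from Ub-AMC cleavage, excitation 355 nm, emission 460 nm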
ALR inh = inhibitors of human ALR sulfhydryl oxidase, primary screen, biochemical, H2O2 detection, HRP-luminol luminescence, single point; FAD-linked sulfhydryl oxidase ALR (Homo sapiens), P55789; purified ALR, DTT oxidation; inhibition, % (no concentration beside the values); 3.8% of 290,000 active;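 active = mean and each replicate at 75% or more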;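 note: stock transfer was 7.5 nL into about 7.5 µL; 0% = neutral wells and 100% = wells with inactivated enzyme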
Target sequence (P55789 whole entry, looked up): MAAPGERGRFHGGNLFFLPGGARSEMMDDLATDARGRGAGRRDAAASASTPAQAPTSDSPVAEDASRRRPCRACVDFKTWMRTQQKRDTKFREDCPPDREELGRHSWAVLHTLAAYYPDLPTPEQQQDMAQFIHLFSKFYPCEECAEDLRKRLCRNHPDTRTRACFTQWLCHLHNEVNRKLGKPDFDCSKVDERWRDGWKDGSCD
HNF4A DNA FP = change in binding of human HNF4A to DNA, primary screen, biochemical, fluorescence polarization, FITC-DNA | activity change, % at 10 µM | 1 h | 0.3% of 360,000 active; in the data active = activity change above about 30%, passing the limit was not always enough;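 note: controls were the assay level and a saturating level of protein; the project sought stronger binding though the title names inhibitors; some compounds called inactive have numbers as strong as hits; positive values seem to mean higher polarization but the record does not say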
Ecoli rRNA inh = reduced GFP signal of wild-type E. coli, primary screen, bacterial rRNA inhibitor project, GFP/RFP fluorescence, OD600, single point; E. coli WT GFP vs humanized-ribosome RFP mutants, 24 h; stronger effect = lower value; DMSO median 0, no signal -100; GFP signal change (wild-type ribosome), % (concentration not given with the values); 1.6% of 350,000 active; AID 720706, 2013;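 active = significant combined selectivity score with lowered wild-type GFP, culture density cut under 30%, mutant RFP and density less affected; inactive = any of these conditions unmet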; note: one replicate is shown; some compounds called inactive have numbers as strong as hits
E coli growth = E. coli growth inhibition, primary screen, OD600. Escherichia coli growth, 23 h; stronger effect = lower value. OD600 absorbance (no concentration beside the values). 0.21% of 330,000 active. AID 1053175, 2014;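 active = OD600 absorbance below the run mean of sample wells minus 3.6 SD, in any replicate, cut at about 0.56 in these data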;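 note: stock transfer was 300 nL into about 60 µL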
Ecoli rRNA inh OD600 = further read-out of Ecoli rRNA inh, marked with its call; OD600 change, %; measured here: OD600 growth;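 optical density of the mix in the first replicate; 0 = DMSO median and -100 = no signal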
Ecoli rRNA inh RFP = second read-out of Ecoli rRNA inh, no call of its own (marks repeat the call); RFP signal change, %; measured here: RFP humanized mutant strains;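 first replicate; 0 = DMSO median and -100 = no signal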
The depositor's hits bear a star; i = inactive; · = no result given; + = active, no number.

Value order: ALR inh	Beta2AR agonist	Ecoli rRNA inh	FGF22 binding	E coli growth	Ecoli rRNA inh RFP	HNF4A DNA FP	Ecoli rRNA inh OD600	UCH37 DUB inh
Cc1ccc(CN(C)C(=O)CCNC(=O)c2ccc(Cl)cc2)o1
    ·	·	5	i	·	1.3	4.6	9	·
Cc1cc(C)nc(/N=C(\N)Nc2ccc(OCCC(C)C)cc2)n1
    -4	7	-16	i	0.55	1.6	1.6	-17	1.5
O=C(CSc1nnc(CNc2ccc(Cl)cc2)o1)Nc1nc2ccccc2s1
    -13	6	·	·	0.68	·	7.4	·	1.9
O=C(c1ccco1)N1CCN(C(=O)C(Sc2ccccc2)c2ccccc2)CC1 (configuration not stated)
    -5	10	·	·	0.7	·	-0.2	·	5.8
O=C(c1cnc2n(c1=O)CCS2)N(C1CCCCC1)C1CCCCC1
    -13	-5	-7	i	0.74	-5.0	-0.7	15	2.4
CCOC(=O)Nc1ccc2c(c1)nc(CN1CCN(C(C)=O)CC1)n2C
    -7	1	·	·	0.66	·	-1.6	·	5.0
Cn1cc([C@@H]2C[C@H]3CN(C4CCCC4)C(=O)[C@]34CCCN24)c(-c2ccccc2)n1
    0	6	7	i	0.69	2.6	3.4	-9	0.9
COc1ccc(/C(N)=N/OC(=O)c2cccs2)cc1OC
    ·	2	7	i	0.7	4.7	2.8	1	2.0
CC(C)c1ccc(NC(=O)C2CCCN2S(=O)(=O)c2ccccc2F)cc1 (configuration not stated)
    -3	0	-5	i	0.64	1.8	2.0	-15	-2.6
CCOC(=O)[C@]12CCCC=C1N(Cc1ccc(Cl)cc1Cl)C(=O)[C@H](CC(=O)NCCC(C)C)C2
    ·	·	8	i	·	-2.1	-2.6	2	·
Cc1cc(N)n2ncc(-c3cccc(Br)c3)c2n1
    -6	-6	·	·	0.69	·	-1.2	·	-105
CCN1C(=NCCOC)N[C@@H](c2cccc(F)c2)C(C(=O)OC)=C1C
    0	4	·	·	·	·	2.8	·	2.5
CCOC(=O)C1(C(F)(F)F)N=C(c2ccccc2F)OC(N(C)C)=N1 (configuration not stated)
    0	1	6	i	0.67	2.8	4.3	-10	5.1
O=C1COc2ccc(-c3csc(NCCc4ccccc4)n3)cc2N1
    32	12	-3	i	0.71	7.1	0.8	-2	-0.6
Cc1ccc(N2CCN(C(=O)Nc3cccc([N+](=O)[O-])c3)CC2C)cc1 (configuration not stated)
    ·	10	-20	i	0.61	-9.8	-5.0	-17	2.9
Cc1cc(=O)[nH]c(N/N=C/c2cc(C)n(CC(F)(F)F)c2C)n1
    16	-1	4	i	·	9.3	-1.7	15	·
O=C(CNC(=O)c1cccs1)c1ccc(Br)cc1
    -9	-1	-7	i	0.62	-1.6	-27	-6	1.6
O=C(O)C1=C(C(=O)Nc2ccc(F)c(Cl)c2)CCCC1
    -1	-4	·	·	0.68	·	-0.6	·	5.8
CC(=NOC(=O)c1ccc(Cl)cc1)c1nccs1
    ·	·	5	i	0.68	1.7	-0.6	9	1.0
Cc1cc2c(SCC(=O)NC3CCCCC3)ncnc2s1
    -5	-6	9	i	0.72	-0.9	-0.2	17	3.1
O=C(NCC1CCN(c2ccc(S(=O)(=O)N3CCOCC3)cc2)CC1)Nc1ccccc1F
    ·	-9	-5	i	0.68	-0.5	-2.1	-8	5.4
O=C(O)c1ccccc1NS(=O)(=O)c1ccc2ccccc2c1
    -7	3	-50	+	0.7	-10	-1.3	-57	-3.4
CCc1ccc(NC(=O)c2noc3c2CCCCC3)cc1
    -6	1	·	·	0.69	·	0.0	·	1.9
O=C(Nc1ccc(S(=O)(=O)NC2=NCCCCC2)cc1)c1ccc([N+](=O)[O-])s1
    -44	16	-20*	i	0.63	1.2*	5.2	-0.8*	3.3
Oc1[nH]c2ccccc2c1N=Nc1nncc2ccccc12
    ·	-5	17	i	0.69	-2.6	-3.5	1	4.6
COc1cccc(NC(=O)C2CCCN2S(=O)(=O)c2ccc3c(c2)n(C)c(=O)c(=O)n3C)c1 (configuration not stated)
    1	12	3	i	0.68	0.7	-0.5	3	1.9
Cc1c(CCC(=O)NCCCn2ccnc2)c(=O)oc2c(C)c3occ(C(C)(C)C)c3cc12
    -4	3	-52	i	0.64	-13	1.7	-78	-47
COc1ccc(OCc2nnc(SCC(=O)NNC(=O)c3ccc(C)cc3)n2C)cc1
    -7	1	15	i	0.67	1.8	1.7	12	4.8
Cc1ccsc1C(=O)NC(C)c1ccccc1 (configuration not stated)
    -3	5	0	i	0.65	-0.6	0.8	13	1.2
O=C(NC(=S)Nc1ccc(Cl)c(C(=O)O)c1)c1cccc(COc2ccccc2)c1
    29	7	-11	i	0.69	-11	0.0	-28	1.3
COc1ccc(-n2c(=O)cc(N3CCN(c4ccccc4OC)CC3)[nH]c2=O)cc1
    0	3	·	·	0.72	·	1.5	·	0.8
CCn1c(CCNC(=O)c2cccs2)n[nH]c1=S
    0	-3	9	i	0.71	-8.1	0.7	4	4.1
CCN(CC)CCSc1nc2ccc(OC)cc2[nH]1
    ·	-5	0	i	0.68	2.5	-2.3	0	-1.0
Cc1ccc(C(CC(=O)O)Nc2nc(N3CCCCC3)nc(N3CCCCC3)n2)cc1 (configuration not stated)
    ·	-10	·	·	0.76	·	-1.4	·	-1.2
CCOCCCn1c(SC(C(=O)Nc2cc(C)ccc2C)c2ccccc2)nnc1-c1ccc(Cl)cc1 (configuration not stated)
    0	2	·	·	0.78	·	2.3	·	-0.1
CC(Sc1nc2sccc2c(=O)n1-c1ccccc1)C(N)=O (configuration not stated)
    -1	-11	6	i	0.66	-1.2	3.7	13	6.3
COCCN(C(=O)c1csnn1)C(C(=O)NC1CCCCC1)c1ccc(Cl)cc1 (configuration not stated)
    1	-4	18	i	0.71	2.2	3.8	15	2.1
CSCC[C@H](NC(=O)c1ccc(Cl)c(S(=O)(=O)N2CCCC2)c1)c1nc2ccccc2[nH]1
    2	1	-22	i	0.71	29	0.1	-9	0.9
C(=C\c1ccccc1)/CSc1ccccn1
    -20	-1	2	i	0.66	-0.8	-3.2	3	-0.6
CCOC(=O)N1CCN(c2c(NCCc3ccccc3)c(=O)c2=O)CC1
    -23	5	7	i	0.78	-2.8	1.9	24	6.1

Three consecutive records already listed, quoted:
Value order: ALR inh	Beta2AR agonist	Ecoli rRNA inh	FGF22 binding	E coli growth	Ecoli rRNA inh RFP	HNF4A DNA FP	Ecoli rRNA inh OD600	UCH37 DUB inh
COc1ccc(-n2c(=O)cc(N3CCN(c4ccccc4OC)CC3)[nH]c2=O)cc1
    0	3	·	·	0.72	·	1.5	·	0.8
CCn1c(CCNC(=O)c2cccs2)n[nH]c1=S
    0	-3	9	i	0.71	-8.1	0.7	4	4.1
CCN(CC)CCSc1nc2ccc(OC)cc2[nH]1
    ·	-5	0	i	0.68	2.5	-2.3	0	-1.0

Later entries.
Value order: ALR inh	Beta2AR agonist	Ecoli rRNA inh	FGF22 binding	E coli growth	Ecoli rRNA inh RFP	HNF4A DNA FP	Ecoli rRNA inh OD600	UCH37 DUB inh
COC(=O)c1cc(C(=O)OCC(=O)Nc2cc(C)on2)cc([N+](=O)[O-])c1
    -3	-4	4	i	0.69	1.5	-1.9	0	0.1
CC(=O)c1ccc(NC(=O)/C=C/c2ccc(C)cc2)cc1
    ·	11	·	·	0.72	·	4.6	·	5.4
Cc1ccc2nc(NC(=O)CN3C(=O)NC4(CCCC4)C3=O)sc2c1
    -2	17	-7	i	0.69	-1.9	4.9	-11	1.7
Cc1ccc(C(=O)N2CCN(c3ccc(NC(=S)NC(=O)c4cccs4)cc3)CC2)cc1
    -4	-6	2	i	0.72	2.4	-4.5	19	1.2
Cc1ccc(C)c(C(O)c2ncc(-c3ccccc3Cl)[nH]2)c1 (configuration not stated)
    ·	·	4	i	·	-6.8	0.3	-10	·
CCn1cc(C(=O)O)c(=O)c2cnc(N3CCN(C(=S)Nc4ccccc4)CC3)nc21
    2	10	-50	i	0.44*	-28	0.9	-76	1.7
CCC(Oc1ccc(Br)cc1)C(=O)N1CCN(c2ncccn2)CC1 (configuration not stated)
    -7	1	-6	i	0.72	-5.5	-3.6	-1	0.3
COc1ccc2[nH]c3c(c2c1)CCN1C(=O)C(CC(=O)NCCCn2ccnc2)C[C@H](C(=O)N2CCCCC2)[C@@]31CCc1ccccc1 (some centres not stated)
    ·	12	-4	i	0.7	7.4	1.0	-8	0.0
Cc1ccc(-c2nc(SCC(=O)Nc3cc(C)on3)c3c(=O)n(C)c(=O)n(C)c3n2)cc1
    0	2	-13	i	0.66	-5.0	-4.2	-6	0.9
CCOC(=O)N1CCN(S(=O)(=O)c2ccc(C(=O)Nc3nnc(CC)o3)cc2)CC1
    -2	1	·	·	0.71	·	-1.3	·	0.4
CC(C)C(c1nnnn1Cc1ccccc1)N1CCN(Cc2ccc3c(c2)OCO3)CC1 (configuration not stated)
    -14	2	·	·	0.67	·	4.0	·	0.4
O=S(=O)(c1ccccc1C(F)(F)F)N1CCC(n2cnc3ccccc32)CC1
    -8	-10	-54	i	0.65	-31	-2.1	-77	1.7
CCOc1cccc2sc(N(CCCN(C)C)C(=O)c3ccc(S(=O)(=O)N(C)CC4CCCO4)cc3)nc12 (configuration not stated)
    -15	10	-1	i	0.73	6.5	3.3	1	3.9
CC1CCC2C(C1)Nc1c(C(=O)O)cccc1C2(C)C (configuration not stated)
    98*	1	-10	i	0.66	4.7	-1.5	-11	i
CC(C)(C)C(=O)Nc1cc2c3c(c1)CC(=O)N3CCC2
    -2	5	0	i	0.73	-3.6	0.5	6	0.7
CC(=O)N/C(=C\c1ccccc1)C(=O)OCC(=O)c1c(N)n(CC(C)C)c(=O)n(C)c1=O
    1	2	3	i	0.7	0.5	0.7	10	4.6
O=C(CN1C(=O)CCSc2ccccc21)Nc1ccc2c(c1)OCO2
    5	-1	·	·	0.72	·	0.4	·	3.7
COC(=O)c1ccccc1NC(=S)N(C)C
    -15	0	13	i	0.7	0.7	-0.7	1	1.1
Cc1n[nH]c(=O)n1-c1ccc(OC(F)(F)F)cc1
    -4	1	6	i	0.72	2.5	-3.2	6	3.2
O=C(Nc1ccc2c(c1)OCCO2)C1c2ccccc2OCC(=O)N1Cc1ccco1 (configuration not stated)
    ·	·	0	i	·	-2.9	0.2	0	·
O=C(Nc1ccn(Cc2ccc(F)cc2)n1)c1ccncc1
    -3	7	·	·	0.76	·	-5.3	·	-4.0
CCOC(=O)c1cc(C#N)c(SC(C)C(=O)NC2CCCCC2)nc1C (configuration not stated)
    2	7	1	i	0.7	-1.9	6.1	5	5.9
O=C(CSc1nc2ccccc2[nH]1)N/N=C/c1ccco1
    ·	-9	9	i	·	1.0	3.3	9	·
Cc1ccc(CC(=O)N/N=C/c2ccc3c(c2)OCO3)cc1
    -16	4	9	i	·	-1.4	1.8	2	·
Cc1c(N=O)c(-c2ccccc2)n(O)[n+]1[O-]
    ·	·	-7	i	·	-0.3	-2.1	11	·
Cc1cccc(N=Nc2cn[nH]c2-c2ccco2)c1
    45	4	-24	i	0.67	-0.3	-0.6	-20	4.6

Not all compounds are listed. The share of hits here may be higher or lower than overall.
